# Vif TR-FRET – HIV-1 Vif–A3G interaction blockers – biochemical, TR-FRET, GST-Vif 1-94, biotin-A3G peptide, dose response retest, primary screen (AID 1117319); TR-FRET GST-Vif / biotin-A3G peptide binding; higher % means a stronger effect; test concentration not given here; strong numbers were not always called active; hit rate 0.57% among 260,000; inhibition, %; hits with a dose series show IC50 in µM;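 active = above the screen mean plus three standard deviations and confirmed in dose response; inconclusive = results disagree or hit not tested in dose response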;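 also: Vif residues 1-94 fused to GST binding biotinylated APOBEC3G peptide 110-148; 0% = full assay without inhibitor and 100% = GST in place of GST-Vif; retest series ran down from 100 µM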
# UCH37 inh – blocks the human deubiquitinase UCH37; inhibition, % (concentration not given with the values); purified proteasome/UCH37, Ub-AMC cleavage fluorescence; Q9Y5K5; hit rate 0.33% among 330,000;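 active = mean of two replicates above 20%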;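 also: 0% = compound-free wells with enzyme and 100% = wells lacking proteasome; stock transfer was 100 nL into about 20 µL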
#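 Test system – human UCH37 enzyme supplied as purified proteasome complex · Incubation – 30 min preincubation with enzyme, 25 min cleavage at room temperature · Detection – AMC fluorescence from Ub-AMC cleavage, excitation 355 nm, emission 460 nm · Benchmarks – no-proteasome wells (full inhibition) and compound-free wells (no inhibition)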
# Beta2AR agonist – agonists of human beta-2 adrenergic receptor inducing internalization; hit rate 0.43% among 340,000; AID 504454; Am2.2-beta2AR cells, FAP receptor internalization, flow cytometry; reference of the scale not given here; P07550; response, % (test concentration not listed);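 active = response above a set limit, near 3 SD of response in nonfluorescent compounds, cut at about 42% in these data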;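 also: stock transfer was 100 nL into about 11 µL; a reference agonist was the positive control; negative values mostly stem from fluorescent compounds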
# Ecoli growth – E. coli growth inhibition | OD600 absorbance (concentration not given with the values) | hit rate 0.21% among 330,000 | AID 1053175 | Escherichia coli growth, OD600, 23 h; hits give low values;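 active = OD600 absorbance below the run mean of sample wells minus 3.6 SD, in any replicate, cut at about 0.56 in these data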;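 also: stock transfer was 300 nL into about 60 µL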
# HNF4A DNA FP – change in binding of human HNF4 alpha to DNA. P41235. activity change, % at 10 µM. AID 1224865. HNF4a-FITC DNA binding, fluorescence polarization, 1 h. hit rate 0.3% among 360,000; in the data active = activity change above about 30%, passing the limit was not always enough;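 also: controls were the assay level and a saturating level of protein; the project sought stronger binding though the title names inhibitors; some compounds called inactive have numbers as strong as hits; positive values seem to mean higher polarization but the record does not say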
# A1 inh – inhibitors of the anti-apoptotic protein A1, read as caspase activation | MEF A1-2A-BIM cells, Caspase-Glo 3/7 luminescence, 3 h; percent of clofoctol response, vehicle zero | caspase activation, % (test concentration not listed) | hit rate 0.066% among 330,000 | AID 2462;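 active = over half of replicate activation scores above 10%, or exactly half above 10 with the replicate mean above 10; inconclusive = replicate mean below 10 yet half the replicates above 10; inactive = over half of replicates below 10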;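 also: wells of about 30 µL received 50 nL stock; many hits fall short of the cut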
# LANA-H2B inh – blocks KSHV LANA binding to histone H2A/H2B; Q9QR71; cell-free LANA-H2A/H2B peptide, fluorescence polarization; inhibition, % (no concentration beside the values); hit rate 0.6% among 320,000; AID 2629; in the data active = inhibition mostly above about 10%, no sharp cut-off; inactive = mostly below about 6.7%;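 also: stock transfer was 7.5 nL into about 10 µL; 0% = median of vehicle wells and 100% = median of positive control wells; one replicate is shown; the record names a cut of 25% in any replicate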
# Target sequence (Q9QR71 whole entry, looked up): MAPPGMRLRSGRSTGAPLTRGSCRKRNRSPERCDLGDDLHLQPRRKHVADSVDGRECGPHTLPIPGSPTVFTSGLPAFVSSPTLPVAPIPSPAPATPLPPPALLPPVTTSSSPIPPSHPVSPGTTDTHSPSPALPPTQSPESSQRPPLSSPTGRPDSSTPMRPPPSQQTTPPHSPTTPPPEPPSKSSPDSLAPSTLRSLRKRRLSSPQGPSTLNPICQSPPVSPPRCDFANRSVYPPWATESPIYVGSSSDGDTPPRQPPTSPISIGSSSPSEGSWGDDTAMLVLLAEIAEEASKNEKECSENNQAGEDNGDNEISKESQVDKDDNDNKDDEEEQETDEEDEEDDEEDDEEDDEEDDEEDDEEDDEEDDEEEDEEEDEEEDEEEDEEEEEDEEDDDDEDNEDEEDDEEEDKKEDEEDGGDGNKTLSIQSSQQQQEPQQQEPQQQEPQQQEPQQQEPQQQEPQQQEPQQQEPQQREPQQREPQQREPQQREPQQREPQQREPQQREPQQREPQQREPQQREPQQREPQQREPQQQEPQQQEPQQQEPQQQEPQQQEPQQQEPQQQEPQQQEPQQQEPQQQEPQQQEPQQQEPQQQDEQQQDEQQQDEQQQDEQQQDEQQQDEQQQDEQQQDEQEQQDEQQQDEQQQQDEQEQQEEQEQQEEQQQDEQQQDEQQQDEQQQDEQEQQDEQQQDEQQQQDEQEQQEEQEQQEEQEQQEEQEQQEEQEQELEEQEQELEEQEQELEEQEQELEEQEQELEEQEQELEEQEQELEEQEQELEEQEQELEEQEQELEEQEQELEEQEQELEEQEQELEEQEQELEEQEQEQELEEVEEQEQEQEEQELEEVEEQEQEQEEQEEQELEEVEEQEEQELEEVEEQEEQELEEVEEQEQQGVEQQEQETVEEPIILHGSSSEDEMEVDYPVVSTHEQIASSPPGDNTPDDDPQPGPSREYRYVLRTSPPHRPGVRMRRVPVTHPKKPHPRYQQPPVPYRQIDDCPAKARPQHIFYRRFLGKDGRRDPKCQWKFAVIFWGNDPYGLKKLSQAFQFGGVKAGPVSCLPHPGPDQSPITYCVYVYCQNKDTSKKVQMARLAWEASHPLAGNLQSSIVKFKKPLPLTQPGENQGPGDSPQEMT
# Active calls of the source: *; ? = inconclusive; · = not tested or not shown.
SMILES	Vif TR-FRET	HNF4A DNA FP	Beta2AR agonist	Ecoli growth	A1 inh	LANA-H2B inh	UCH37 inh
c1nc(NC2CCCCCC2)c2[nH]cnc2n1	2.1%	1.4	-5.9	0.764	-0.4	0.4	5.8
CCOC(=O)Cn1c2c(c(=N)c3c1CCC3)CCCC2	13.7%	-2.9	·	0.703	0.8	12.9	0.7
Cc1ccc(-c2ccc(SCC(=O)NCC3CCCO3)nn2)cc1 (stereo unspecified)	·	2.0	0.1	0.7	-0.3	-1.1	-1.2
COc1ccc(C(=O)NC(=S)NCc2ccco2)cc1OC	-2.5%	-3.7	-2.6	0.704	0.5	2.1	1.8
O=C(C1CCC(CNS(=O)(=O)c2ccccc2)CC1)N1CCOCC1 (stereo unspecified)	0.5%	3.8	4.2	0.651	1.2	-3.7	4.8
Cc1ccc(Cl)c(OC(=O)c2nn(C(C)C)c(=O)c3ccccc23)c1	·	0.5	1.8	0.71	0.6	-0.4	5.9
Cc1cccc(C)c1Nc1ncnc(N)c1[N+](=O)[O-]	·	5.7	-2.3	0.678	0.3	4.6	6.8
O=C(CNC(=O)c1ccco1)Nc1ccc(Cl)cc1	0.9%	1.9	4.1	0.607	?	-1.2	0.8
O=C(Nc1cccc2ccccc12)c1cnsn1	-1.3%	-3.2	0.5	0.694	0.0	-0.8	3.5
COc1cc(C(=O)NNC(=O)c2ccc3ccccc3n2)cc(OC)c1OC	·	-2.2	2.1	0.7	0.2	2.5	2.2
Cc1ccc(/C=N/NC(=O)c2ccc(C(=O)N/N=C/c3ccc(C)s3)o2)s1	10.0%	0.1	4.8	·	-0.5	1.0	·
CCOC(=O)COc1ccc(C(=O)c2ccccc2)c(O)c1	-6.2%	-1.6	-3.4	0.68	0.1	-5.1	1.7
CCOc1ccc(NC(=S)N=Nc2c(O)[nH]c3ccccc23)cc1	5.9%	1.7	1.8	0.709	2.5	-0.8	-0.9
Cc1ccc(-c2csc(NC(=O)c3ccc(F)cc3)c2C(=O)O)cc1	·	1.8	8.1	0.675	-6.1	6.9	2.0
COc1ccc(-c2ccc3c(c2)S(=O)(=O)c2cccc(C(=O)NCc4cc(C)oc4C(F)(F)F)c2C3=O)cc1OC	·	9.5	-4.4	0.775	3.0	4.8	2.8
CC(C)NC1(C(N)=O)CCNCC1	-4.5%	0.9	-0.9	0.675	·	·	4.9
COc1ccc(Cc2nnc(SCC(=O)Nc3ccc(N4CCOCC4)cc3)o2)cc1	-2.9%	1.6	0.2	0.659	0.4	-5.2	-2.8
Cc1sc2nc(CN(C(=O)c3cccs3)C3CCCC3)[nH]c(=O)c2c1C	10.1%	2.3	-6.7	0.731	1.0	0.6	0.0
CCCSc1nc2c3c(sc2c(=O)[nH]1)CC(C)(CC)OC3 (stereo unspecified)	1.8%	-4.5	1.9	0.706	0.3	-3.7	4.1
CCOC(=O)C1CCN(C(=O)COC(=O)CSc2ccccc2C)CC1	0.2%	1.4	7.8	0.706	·	·	-1.0
COc1ccc(NC(=O)N(Cc2ccc(C)cc2)Cc2ccccn2)c(OC)c1	·	1.1	4.9	0.677	0.3	-3.3	5.1
COc1ccc(N=C2SC(CC(=O)Nc3cccc(Cl)c3)C(=O)N2Cc2ccco2)cc1 (stereo unspecified)	6.3%	-2.1	4.3	0.678	-0.8	3.1	-2.1
COc1cc(CN2CCSCC2)cc(OC)c1OC	4.1%	0.3	11.7	0.734	-0.3	2.3	3.4
CCN(CC(=O)Nc1c(F)cccc1F)C(=O)c1ccc2c(c1)OCO2	-8.2%	-0.8	13.8	0.67	-0.1	·	2.8
CC(=O)Nc1ccc(NC(=O)CCC(=O)NCCO)cc1	?	4.1	0.5	0.73	0.1	3.5	1.0
COc1cccc(N2CCN(c3ccc4nnc(CCC(=O)Nc5ccc(C)cn5)n4n3)CC2)c1	·	4.8	-3.1	0.7	0.3	5.6	-0.2
CN(/N=C/c1cccc(Br)c1)C1=NS(=O)(=O)c2ccccc21	5.1%	-0.1	4.1	·	0.8	-3.7	·
O=C1c2ccccc2C(=O)N1CC1c2ccccc2CCN1S(=O)(=O)c1cnc[nH]1 (stereo unspecified)	10.5%	3.6	-2.5	0.65	0.4	-0.8	1.7
CC(C)(C)OC(=O)NNC1CC(=O)N(c2ccccc2F)C1=O (stereo unspecified)	13.7%	0.0	-4.1	0.679	0.4	2.9	3.5
CC(C)CC(c1nnnn1C(C)(C)C)N1CCN(C2CCCC2)CC1 (stereo unspecified)	-0.3%	2.6	-6.3	0.792	1.1	3.1	4.0
CCOC(=O)C1=C(C)NC(=O)NC1c1c(OCC(=O)N2CCCCC2)ccc2ccccc12 (stereo unspecified)	5.5%	-0.4	-1.1	0.764	-0.4	2.1	5.7
CC(C)OCCCn1c(=O)c2ccccc2n2c(CCC(=O)NC3CCN(Cc4ccccc4)CC3)nnc12	·	-0.2	-13.4	0.668	0.7	-0.8	1.9
Cc1ccc(OCCNCc2ccccc2)c(C)c1	·	-2.4	-1.4	0.609	0.7	4.3	3.6
COc1ccc(C(=O)NC(Cc2ccccc2)c2ccc3c(c2)OCCCO3)cc1 (stereo unspecified)	-2.5%	4.9	-8.1	0.713	1.3	0.7	3.5
COC(=O)c1ccc(N=Nc2c(C)[nH]n(-c3ccccc3)c2=O)cc1	·	1.6	5.3	0.701	-0.9	-0.5	6.1
Cn1c(SCC(=O)Nc2ccccc2-c2ccccc2)nnc1-c1ccco1	-0.2%	-1.5	-16.2	0.654	-0.1	2.0	-1.1
Cc1ccc(NC(=O)C2CCCN2C(=O)OCc2ccccc2)c(O)c1 (stereo unspecified)	·	-1.0	-3.0	0.715	0.4	0.2	5.9
CCC(=NC(C)c1ccccc1)c1c(O)n(C)c(=O)n(C)c1=O (stereo unspecified)	5.2%	10.4	-1.2	0.646	0.1	1.5	-0.1
Cc1cc(OCCOCCNCc2ccccc2)ccc1C(C)C	6.4%	2.7	15.4	0.629	-0.4	-0.2	5.3
CC(=O)Oc1ccc2occ(C(=O)c3cccs3)c2c1	1.3%	1.4	-4.6	0.724	-6.0	-1.3	3.0
Cc1cc(NN)nc(NS(=O)(=O)c2ccc(Cl)cc2)n1	7.8%	0.7	-5.2	·	-1.4	3.0	·
O=C(Nc1ccnn1C1CCN(Cc2cc3ccccc3[nH]2)CC1)C1CCOC1 (stereo unspecified)	·	1.6	4.0	·	-0.3	1.3	·
O=C(CSc1nnc(CNC(=O)c2c(F)cccc2Cl)o1)c1ccccc1	17.7%	-2.6	-2.2	0.703	-0.5	1.9	3.1
CC(C)(CNC(=O)C1CCN(S(=O)(=O)c2cc([N+](=O)[O-])ccc2Cl)CC1)N1CCOCC1	2.5%	-0.2	5.0	0.671	·	·	4.1
Cc1ccnn2c(-c3ccccc3)c3c(=O)n(C)c(=O)n(C)c3c12	4.9%	·	·	0.668	·	·	-2.5
O=c1[nH]cccc1-c1nc2ccccc2n1Cc1ccc(Cl)cc1	-11.0%	-0.8	-1.1	0.649	-0.8	3.0	-423.0
Cc1ccc(S(=O)(=O)N2[C@@H](c3ccc(C(C)(C)C)cc3)C(C(=O)O)=CC[C@H]2c2cccs2)cc1	6.8%	-6.5	-2.3	0.645	·	·	0.6
Cc1c2c(nc3c(C(=O)NC4CC4)cnn13)CCCC2	-1.0%	-0.1	-5.4	0.729	·	·	2.0
CC(=O)Nc1ccc(C2NC(=S)N(c3ccccc3C(F)(F)F)C(C)=C2C(=O)N2CCOCC2)cc1 (stereo unspecified)	1.8%	0.2	-0.3	0.672	0.0	-0.1	5.3
Cc1ccc(S(=O)(=O)N(CC2CO2)c2ccccc2[N+](=O)[O-])cc1 (stereo unspecified)	·	-0.1	-2.6	0.701	-1.4	-5.1	5.1

# Next records follow:
SMILES	Vif TR-FRET	HNF4A DNA FP	Beta2AR agonist	Ecoli growth	A1 inh	LANA-H2B inh	UCH37 inh
COc1ccc(-n2c(Cc3cccn3C)nnc2SCC(=O)Nc2ccc(C)cc2)cc1	?	-0.6	-10.2	0.716	1.3	-3.3	1.0
O=c1cc(N2CCCCC2)c(-c2ccccc2)nn1Cc1ccccc1	2.5%	-5.0	0.1	0.688	-0.7	0.6	7.6
CCc1cc(C(=O)N2CCN(S(=O)(=O)c3cc(C)ccc3C)CC2)sc1C	-7.6%	0.3	-2.0	0.727	0.0	10.8	4.7
COc1ccc(NC(=O)CSc2nc3ccccc3nc2N2CCCCC2)cc1	·	1.7	-0.9	0.798	-0.5	-3.2	1.5
CCOC(=O)C1(Cc2ccc(OC)cc2)CCN(C(=O)c2csc(C)n2)CC1	-10.5%	-2.0	-2.7	0.703	?	9.0	-0.5
Cc1ccc(NS(=O)(=O)c2cc3c(cc2C)NC(=O)CO3)cc1	·	2.0	-2.7	0.804	-0.1	-11.4	5.4
O=C(COC(=O)/C=C/c1cccc([N+](=O)[O-])c1)NCCCN1CCCC1=O	·	0.7	-12.4	0.638	0.4	-1.0	1.7
COc1ccc(CCNS(=O)(=O)c2ccccc2[N+](=O)[O-])cc1OC	·	-4.2	3.4	0.657	-0.6	4.2	1.3
Cn1cc(C(=O)NCCO)c(=O)c2ccccc21	-1.2%	-4.1	-7.2	0.675	-0.8	2.0	1.0
COc1ccc(S(=O)(=O)N2CCCCC2)cc1NC(=O)CSc1ncccn1	4.0%	4.8	5.0	0.636	0.4	-0.4	1.3
Oc1cccc(/C=N/N=C/c2cccc(O)c2O)c1O	·	-24.2	-4.6	·	-8.2	-2.1	·
COc1cccc(CNC(=O)CCNS(=O)(=O)c2ccc3[nH]c(=O)oc3c2)c1	·	0.8	-1.6	0.706	·	·	2.3
O=C1CN(C(=O)COC(=O)/C=C/c2ccc(OC(F)F)cc2)c2ccccc2N1	12.0%	0.8	-0.5	0.705	-0.5	-2.5	1.8
CCOC(=O)C1CCN(C(=O)CN(C)S(=O)(=O)c2ccc3c(c2)c(=O)n(C)c(=O)n3C)CC1	·	-3.3	-2.9	0.663	1.2	-0.7	4.5
Cc1cc(S(=O)(=O)NC2CCCCC2)ccc1OCC(=O)NCC1CCCO1 (stereo unspecified)	·	-0.9	8.0	0.667	-0.4	2.6	0.8
CCN(C(=O)/C=C/c1ccc2c(c1)OCO2)c1ccccc1	-8.5%	-1.9	-7.5	0.73	-0.4	0.5	3.5
CCOc1cc(CNC2CCCC2)cc(Cl)c1OCc1ccc(F)cc1	5.1%	-2.5	22.1	0.652	-0.2	3.7	1.0
CC(/C=C1\SC(=S)N(CCC(=O)Nc2ccccc2O)C1=O)=C\c1ccccc1	·	47.0*	13.2	0.673	-1.5	-1.7	6.2
Cc1cc(=O)[nH]c(N/N=C/c2ccc(OC(=O)c3ccco3)cc2)n1	15.7%	1.9	1.1	·	0.0	-12.2	·
CCC(c1nnnn1C(C)(C)CC)N(CCCN1CCOCC1)Cc1cc2cccc(C)c2[nH]c1=O (stereo unspecified)	1.9%	-0.6	-6.4	0.666	-1.0	4.4	5.8
O=C(Nc1cccc(-c2csc(Nc3ccc(Cl)cc3)n2)c1)c1cccc(C(F)(F)F)c1	·	-0.3	11.1	0.731	0.2	2.5	5.3
S=c1[nH]nc(COc2ccc(Cl)cc2)o1	35.6%	1.6	0.0	0.737	-0.6	3.6	4.5
O=c1oc2ccccc2c2oc3cc(O)c(O)cc3c12	24.2%	-26.5	7.4	0.628	-5.3	1.6	-34.0
COc1ccc2oc(C(=O)OCC(=O)N3CCN(S(=O)(=O)c4ccc(C)cc4)CC3)c(C)c2c1	·	4.7	6.9	0.722	1.2	-0.5	-53.5

# Compound activity (PubChem BioAssay)
